rRNA inh HTS: inhibitors of bacterial rRNA selective over humanized ribosomes; 350,000 tested, 1.6% active; E. coli WT GFP vs humanized-ribosome RFP mutants, fluorescence, 24 h; stronger effect = lower value; DMSO median 0, no signal -100; GFP signal change (wild-type ribosome), % (no concentration beside the values); AID 720706;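 active = significant combined selectivity score with lowered wild-type GFP, culture density cut under 30%, mutant RFP and density less affected; inactive = any of these conditions unmet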; note: one replicate is shown; some compounds called inactive have numbers as strong as hits
ALR H2O2 inh: inhibitors of human sulfhydryl oxidase ALR; P55789; inhibition, % (no concentration beside the values); AID 485317; 290,000 tested, 3.8% active; purified ALR, DTT oxidation, H2O2 HRP-luminol luminescence;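 active = mean and each replicate at 75% or more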;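 note: stock transfer was 7.5 nL into about 7.5 µL; 0% = neutral wells and 100% = wells with inactivated enzyme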
Target sequence (P55789 whole entry, looked up): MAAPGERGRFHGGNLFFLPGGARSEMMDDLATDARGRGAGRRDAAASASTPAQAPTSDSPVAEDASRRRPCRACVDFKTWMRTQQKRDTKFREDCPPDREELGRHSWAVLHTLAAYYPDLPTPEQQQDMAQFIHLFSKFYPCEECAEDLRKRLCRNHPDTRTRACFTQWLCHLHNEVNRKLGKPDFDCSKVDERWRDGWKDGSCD
FGF22 binding: FGF22 (human) thermal shift binding | Q9HCT0 | recombinant FGF22 thermal shift, SYPRO orange fluorescence; percent of sucrose octasulfate shift, DMSO zero | calls only at 9.99 µM | 340,000 tested, 1.5% active | AID 651658;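 active = melting point raised past a set limit in the mean and every replicate; three in four hits are not shown here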
Target sequence (Q9HCT0 whole entry, looked up): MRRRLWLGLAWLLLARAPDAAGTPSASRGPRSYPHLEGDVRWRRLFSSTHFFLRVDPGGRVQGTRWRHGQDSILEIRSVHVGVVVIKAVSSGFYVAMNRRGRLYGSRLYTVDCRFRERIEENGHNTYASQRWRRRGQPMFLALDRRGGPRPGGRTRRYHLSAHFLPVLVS
AF4-AF9 inh: blocks AF4 peptide binding to human AF9; P42568; inhibition, % at 10 µM; 350,000 tested, 0.47% active; AlphaScreen, biotin-AF4 peptide binding to FLAG-AF9;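 active = every replicate reaching a set inhibition limit, whatever the replicate mean, cut at about 25% in these data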;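 note: 0% = plate neutral control median and 100% = total signal loss; the record names both 10 and 1 µM as test concentration; the first replicate is given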
HNF4A DNA FP: change in binding of human HNF4 alpha to DNA | P41235 | HNF4a-FITC DNA binding, fluorescence polarization, 1 h | activity change, % at 10 µM | 360,000 tested, 0.3% active | AID 1224865; in the data active = activity change above about 30%, passing the limit was not always enough;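 note: controls were the assay level and a saturating level of protein; the project sought stronger binding though the title names inhibitors; some compounds called inactive have numbers as strong as hits; positive values seem to mean higher polarization but the record does not say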
Target sequence (P41235 whole entry, looked up): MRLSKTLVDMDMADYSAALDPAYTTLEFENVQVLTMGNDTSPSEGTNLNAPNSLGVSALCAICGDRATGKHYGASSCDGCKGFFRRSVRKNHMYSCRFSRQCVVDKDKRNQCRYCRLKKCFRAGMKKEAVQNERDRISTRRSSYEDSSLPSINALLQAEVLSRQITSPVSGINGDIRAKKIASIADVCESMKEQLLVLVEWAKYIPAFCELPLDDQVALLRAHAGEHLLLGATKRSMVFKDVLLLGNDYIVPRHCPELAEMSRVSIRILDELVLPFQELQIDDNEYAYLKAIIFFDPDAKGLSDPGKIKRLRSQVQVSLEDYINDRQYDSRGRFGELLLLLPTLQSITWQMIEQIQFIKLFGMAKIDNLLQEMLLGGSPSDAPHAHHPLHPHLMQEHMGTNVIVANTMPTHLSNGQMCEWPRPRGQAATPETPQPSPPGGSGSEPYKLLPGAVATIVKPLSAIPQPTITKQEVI
Ecoli growth: blocks Escherichia coli growth | OD600, 23 h; stronger effect = lower value | OD600 absorbance (no concentration beside the values) | 330,000 tested, 0.21% active | AID 1053175;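 active = OD600 absorbance below the run mean of sample wells minus 3.6 SD, in any replicate, cut at about 0.56 in these data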;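 note: stock transfer was 300 nL into about 60 µL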
Vif A3G: inhibitors of Vif binding to APOBEC3G peptide, primary screen, biochemical, TR-FRET, GST-Vif 1-94, biotin-A3G peptide, dose response retest (AID 1117319). TR-FRET GST-Vif / biotin-A3G peptide binding; higher % means a stronger effect; test concentration not given here; strong numbers were not always called active. 260,000 tested, 0.57% active. inhibition, %, or IC50 in µM where a hit was titrated;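 active = above the screen mean plus three standard deviations and confirmed in dose response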;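 note: Vif residues 1-94 fused to GST binding biotinylated APOBEC3G peptide 110-148; 0% = full assay without inhibitor and 100% = GST in place of GST-Vif; retest series ran down from 100 µM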
rRNA inh HTS OD600: also measured in rRNA inh HTS; calls as there; OD600 change, %; measured here: OD600 growth;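 optical density of the mix in the first replicate; 0 = DMSO median and -100 = no signal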
rRNA inh HTS RFP: recorded beside rRNA inh HTS, whose call it bears; RFP signal change, %; measured here: RFP humanized mutant strains;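 first replicate; 0 = DMSO median and -100 = no signal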
Active calls of the source: *; i = inactive; x = not tested or not shown; & = joins results of further samples. Some of the compounds tested. The share of hits here may be higher or lower than overall.

SMILES	rRNA inh HTS	rRNA inh HTS OD600	rRNA inh HTS RFP	ALR H2O2 inh	FGF22 binding	AF4-AF9 inh	HNF4A DNA FP	Ecoli growth	Vif A3G
COc1ccccc1N1CCN(Cc2ccc3c(c2)OCO3)CC1	-4	0	1.3	17	i	-0.5	-1.6	0.69	x
O=c1c2ccccc2nc(/C=C/c2ccccc2F)n1-c1ccccc1O	-24*	-16*	-6.0*	8	i	12	-1.8	0.64	x
O=C(NCCN1CCC2(CC1)C(=O)NCN2c1ccccc1)c1cccc2c1-c1ccccc1C2=O	11	11	0.2	x	i	2.5	x	x	x
CCCC12CN3CN(C1)CC(CCC)(C3)C2O (stereo unspecified)	x	x	x	-9	x	x	0.0	0.8	6%
O=C(Cc1ccccc1)N1CCN(Cc2ccc(Cl)cc2)CC1	-13	-9	0.5	x	i	1.1	-4.1	x	x
O=C(O)c1nn(Cc2ccc(Cl)cc2Cl)c2ccccc12	x	x	x	5	i	-2.7	-1.6	0.66	-8%
CC[C@H]1CN(C)CCc2c([nH]c3ccccc23)C(=O)C[C@@H]1/C(=C\OC)C(=O)OC	x	x	x	-16	i	-2.5	0.6	0.71	x
O=c1[nH]c(=O)n(-c2ccc(F)cc2)c(O)c1C=Nc1ccccc1N1CCCC1	x	x	x	x	x	x	58*	0.79	14%&-5%
Oc1ccccc1-[n+]1c(-c2ccccc2)cc(-c2ccccc2)cc1-c1ccccc1	-24	-40	-4.4	19	i	23	3.0	x	x
C/C=C/c1ccc([C@H]2[C@@H](CO)N3CCCCN(C(=O)Cc4ccncc4)C[C@@H]23)cc1	1	10	1.0	x	i	-8.3	x	x	x
C[n+]1ccc(-c2ccncc2)cc1	6	1	1.6	-2	i	3.8	-2.7	0.7	-1%
N#CC(C#N)=Cc1ccc(N2CCCC2)cc1	22	2	6.8	19	x	-0.3	16	0.68	-8%
O=C1NC(=O)C2(Cc3ccccc3N3CCOCC32)C(=O)N1c1ccccc1 (stereo unspecified)	6	1	-3.5	61	i	3.2	3.1	0.68	4%
CCCCn1c(O)c(C(CC)=NCc2cccnc2)c(=O)[nH]c1=O	x	x	x	-6	x	x	-5.1	0.75	6%
O=P(Nc1ccccc1)(Oc1ccccc1)Oc1ccccc1	-5	1	-2.2	-4	i	-1.5	-0.7	0.69	0%
COc1ccc(C2C3=C(CC(C)(C)CC3=O)Oc3ncn4nc(-c5ccccc5)nc4c32)cc1 (stereo unspecified)	15	5	-3.5	x	i	-15	1.7	0.67	x
COC(=O)C1=C(c2ccc(OCc3ccccc3)cc2)C[C@@H]2CC[C@H]1N2C(=O)NCc1cccc(F)c1	-4	2	3.1	x	i	-7.1	-2.5	x	2%
COc1ccc(CCn2c(O)c(C=NCc3cccnc3)c(=O)[nH]c2=O)cc1OC	x	x	x	-5	x	x	2.2	0.67	4%
COc1ccc(/C=C2/C(=O)NC(=S)N(C3CC3)C2=O)cc1CN1C(=O)c2ccccc2C1=O	7	2	-1.2	12	i	-9.2	0.4	0.69	x
O=C1OC(c2ccc(Cl)cc2)=N/C1=C\N1CC2CC(C1)c1cccc(=O)n1C2 (stereo unspecified)	-1	6	-0.7	-7	i	7.9	5.3	0.67	-7%
Fc1ccc(C2=CCN(C(c3ccc(Cl)cc3)c3nnnn3Cc3ccccc3)CC2)cc1 (stereo unspecified)	-2	1	-1.4	2	i	-1.1	-3.5	0.73	15%
COC(=O)C1=C(c2cccc(C#N)c2)C[C@@H]2CC[C@H]1N2C(=O)NCc1ccc(F)cc1	-7	-8	-7.3	1	i	-2.9	1.3	x	x
O=C(O)[C@@H]1C[C@H]1[C@@H](NP(=O)(c1ccccc1)c1ccccc1)c1ccccc1	1	22	0.4	1	i	-2.8	-2.6	x	6%
O=C(Nc1cc(Cl)cc(Cl)c1)N1Cc2ccccc2-n2nncc2C1	x	x	x	x	i	1.0	3.4	x	4%
CCCCCCCCCCCCCCCC[N+](C)(C)C	x	x	x	-42	i	-30	5.7	0.069*	x
COc1ccc(C(=O)CC2(CC(=O)c3ccc(OC)cc3)C(=O)N(C)C(=O)N(C)C2=O)cc1	x	x	x	19	x	x	-1.2	0.74	1%
CCOC(=O)c1c(N)n(CCN2CCCCC2)c2nc3ccccc3nc12	-3	2	-0.3	-11	x	x	-2.6	0.68	27%
O=C(Nc1cccc2ccccc12)N1Cc2ccccc2-n2nncc2C1	-9	-2	-0.4	x	i	-3.2	2.1	x	9%
COC(=O)CC(NC(=S)N1CC2C[C@@H](C1)Cn1c2cccc1=O)C(=O)OC (stereo partly specified)	8	9	1.4	7	i	-0.2	-2.5	0.68	x
CCCCn1c(O)c(/C=C/C=Nc2ccccc2)c(=O)[nH]c1=O	x	x	x	1	x	x	55*	0.69	25%
CC1(C)CC(=O)C(C2(O)C(=O)NC(=O)NC2=O)=C(O)C1	x	x	x	14	x	x	1.3	0.7	17%
CCn1c(C)cc(/C=C2\C(=O)NC(=O)N(c3ccccc3C)C2=O)c1C	12	15	4.8	30	i	-0.3	3.7	0.66	-9%
CCOc1ccc(N2C(=O)/C(=C/c3ccco3)C(=O)NC2=S)cc1	x	x	x	98*	x	x	-69	0.75	x
CC#CP(=O)(OCC)C(O)(c1ccccc1)C(F)(F)F (stereo unspecified)	x	x	x	2	x	x	-1.0	0.71	1%
Cc1ccc(S(=O)(=O)N2CC2(C)CCl)cc1 (stereo unspecified)	12	4	-10	4	i	1.3	-2.2	0.67	-16%
CCN(CC)c1ccc(N=Cc2c(O)n(CCC3=CCCCC3)c(=O)[nH]c2=O)cc1	6	13	-0.1	-13	x	x	102	0.71	6%
CNS(=O)(=O)c1ccc(N=Cc2c(O)n(-c3ccc(C)cc3)c(=O)[nH]c2=O)cc1	20	8	3.0	2	i	-0.6	1.5	0.7	1%
O=c1[nH]c(O)c(N=Nc2cc(C(F)(F)F)ccc2Cl)c(=O)[nH]1	2	-7	-0.2	-8	x	-2.6	-6.8	0.71	19%
O=C(Cc1ccccn1)N1CCCCN2[C@H](C1)[C@H](c1ccc(-c3ccc(F)cc3)cc1)[C@@H]2CO	4	-3	-0.5	x	i	-2.3	x	x	x
Cc1cccc(N=Cc2c(O)n(C)c(=O)n(C)c2=O)c1	-4	1	-4.7	-24	i	2.3	1.9	0.66	x

Ordered by length of the SMILES (highest first): nine of the compounds above
SMILES	rRNA inh HTS	rRNA inh HTS OD600	rRNA inh HTS RFP	ALR H2O2 inh	FGF22 binding	AF4-AF9 inh	HNF4A DNA FP	Ecoli growth	Vif A3G
COC(=O)C1=C(c2cccc(C#N)c2)C[C@@H]2CC[C@H]1N2C(=O)NCc1ccc(F)cc1	-7	-8	-7.3	1	i	-2.9	1.3	x	x
O=C(O)[C@@H]1C[C@H]1[C@@H](NP(=O)(c1ccccc1)c1ccccc1)c1ccccc1	1	22	0.4	1	i	-2.8	-2.6	x	6%
CNS(=O)(=O)c1ccc(N=Cc2c(O)n(-c3ccc(C)cc3)c(=O)[nH]c2=O)cc1	20	8	3.0	2	i	-0.6	1.5	0.7	1%
Fc1ccc(C2=CCN(C(c3ccc(Cl)cc3)c3nnnn3Cc3ccccc3)CC2)cc1 (stereo unspecified)	-2	1	-1.4	2	i	-1.1	-3.5	0.73	15%
COC(=O)CC(NC(=S)N1CC2C[C@@H](C1)Cn1c2cccc1=O)C(=O)OC (stereo partly specified)	8	9	1.4	7	i	-0.2	-2.5	0.68	x
CCOc1ccc(N2C(=O)/C(=C/c3ccco3)C(=O)NC2=S)cc1	x	x	x	98*	x	x	-69	0.75	x
CC1(C)CC(=O)C(C2(O)C(=O)NC(=O)NC2=O)=C(O)C1	x	x	x	14	x	x	1.3	0.7	17%
CCOC(=O)c1c(N)n(CCN2CCCCC2)c2nc3ccccc3nc12	-3	2	-0.3	-11	x	x	-2.6	0.68	27%
O=C(Nc1cccc2ccccc12)N1Cc2ccccc2-n2nncc2C1	-9	-2	-0.4	x	i	-3.2	2.1	x	9%

The results go on:
SMILES	rRNA inh HTS	rRNA inh HTS OD600	rRNA inh HTS RFP	ALR H2O2 inh	FGF22 binding	AF4-AF9 inh	HNF4A DNA FP	Ecoli growth	Vif A3G
CN1C2CCC1CC(OC(=O)CCN1CCCC1)C2 (stereo unspecified)	x	x	x	-3	x	-4.2	0.3	0.61	-1%
COc1ccc2c(c1)NP(=S)(c1ccccc1)N2 (stereo unspecified)	12	-10	0.2	x	i	-0.6	-15	0.65	11%
CCOC(=O)Cn1cc(C=C2C(=O)N(C)C(=O)N(C)C2=O)c2ccccc21	22	13	-0.5	1	i	-0.3	-1.3	x	-73%
COc1cccc(CN2CCNCC2)c1	16	23	6.8	x	i	-27	1.1	x	x
COc1ccc(-n2nnnc2C(c2cc3ccccc3o2)N2CCC(n3c(=O)[nH]c4ccccc43)CC2)cc1 (stereo unspecified)	3	8	3.6	x	i	-3.8	-3.0	x	x
CCc1c(C)nc(N)nc1N1N=C1SCC(=O)OC	22	15	3.5	-1	x	-0.9	5.5	0.68	-14%
Cc1ccc(OCCn2cc(/C=C(\C#N)C(=O)NCC3CCCO3)c3ccccc32)cc1C (stereo unspecified)	x	x	x	-2	i	1.4	-1.2	0.71	x
COC(=O)C1=C(c2ccc3ccccc3c2)C[C@@H]2CC[C@H]1N2C	-2	-9	0.0	-18	i	x	1.6	x	x
Oc1c(Cl)cccc1Cc1cc(Cl)cc(Cl)c1O	-59	-79	-20	x	i	0.4	0.4	0.38*	0%
C[C@]12CC[C@@H](O)CC1=CCC1C2CC[C@@]2(C)C1C[C@@H](F)[C@@H]2O (stereo partly specified)	-24	-35	-1.1	-3	i	-1.7	-0.6	0.68	4%
c1ccc(C2NCc3ccccc3-n3cccc32)cc1 (stereo unspecified)	2	1	1.9	-34	i	21	2.2	0.67	-3%
O=[N+]([O-])c1cccc(CN2CC=C(c3ccc(F)cc3)CC2)c1	-5	-5	2.7	-7	i	18	0.0	0.61	x
COP(=O)(NS(=O)(=O)c1ccccc1)OC	17	16	2.7	-2	i	2.5	5.3	0.65	x
COc1cccc(-c2ccc([C@H]3[C@@H](CO)N4CCCCN(C(=O)Cc5ccncc5)C[C@@H]34)cc2)c1	-5	-8	-4.6	x	i	-9.3	x	x	x
CCCCCSc1cc(O)c(C(CNC)C(C)C)cc1OC (stereo unspecified)	3	-4	-3.2	x	i	9.5	-2.8	0.69	2%
O=C(N/N=C/c1c(O)n(Cc2ccc(F)cc2)c(=S)[nH]c1=O)c1ccncc1	-8	-3	39	x	i	14	2.5	0.66	6%
Cc1cccc(NC(=S)N2CC3CC(C2)c2cccc(=O)n2C3)c1C (stereo unspecified)	-1	-12	2.0	-1	i	4.2	-1.1	0.66	x
COC(=O)C1=C(c2cc3ccccc3s2)C[C@@H]2CC[C@H]1N2C(=O)NCC1CC1	-15	-18	-3.8	-2	i	7.3	-3.3	x	x
O=C(C1CCN(S(=O)(=O)N2CCOCC2)CC1)N1CCC2(CC1)OCCO2	x	x	x	5	x	x	3.6	0.7	-5%
Nc1ccc([N+](=O)[O-])cc1	8	3	0.2	-8	i	x	5.2	0.64	x
CCCCn1nnnc1C(C1CC1)N1CCC(n2c(=O)[nH]c3ccccc32)CC1 (stereo unspecified)	-20*	-9.6*	2.4*	x	i	-84	-1.2	x	x
